# AmpC nodet inh = Promiscuous and Specific Inhibitors of AmpC Beta-Lactamase (assay without detergent); P00811; AmpC nitrocefin hydrolysis, absorbance 480 nm, no detergent; potencies from a single point are estimates; Potency, µM (doses to about 28.7 µM), without a hit: at the top dose activity change, negative = inhibition; actives 1.8% (n = 71,000); AID 585, 2007; active = falling curve, for most hits resting on a single point; inconclusive = weak or doubtful change; inactive = flat or rising curve; note: % of control where 0% means no effect; about half of the hits show no inhibition at the top dose; a quarter of the inactives give rising signals
# Target sequence (P00811 whole entry, looked up): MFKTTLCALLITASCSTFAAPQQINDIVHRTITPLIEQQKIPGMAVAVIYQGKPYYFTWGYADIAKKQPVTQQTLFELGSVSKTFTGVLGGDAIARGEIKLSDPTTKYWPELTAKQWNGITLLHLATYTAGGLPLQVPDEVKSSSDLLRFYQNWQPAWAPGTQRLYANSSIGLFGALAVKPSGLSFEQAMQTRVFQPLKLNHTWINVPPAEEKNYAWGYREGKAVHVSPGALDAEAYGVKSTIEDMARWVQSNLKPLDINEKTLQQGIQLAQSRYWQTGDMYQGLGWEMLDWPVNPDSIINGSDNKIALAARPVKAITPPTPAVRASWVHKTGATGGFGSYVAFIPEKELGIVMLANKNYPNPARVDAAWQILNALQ
#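 AmpC, 20 mM phosphate pH 7.0; 15 min cpd preinc, RT; start with nitrocefin (800 uM stock); A480 kinetic read, 20 s intervals, 4 min. No-enzyme wells = negative control.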
# * marks the source's active call; other numbers are inactive results; [ ] = another dose, or the depositor's remark. Potency is the fitted concentration of half-maximal effect.
SMILES,AmpC nodet inh
O=C(NC(Cc1ccccc1)C(=O)NCc1ccccn1)c1ccco1 (stereo unspecified),20%
O=C(CCCCn1c(=O)c2ccccc2n(Cc2ccc(Cl)cc2)c1=O)NCc1ccco1,37%
COc1ccc(OC)c(C2C(C(=O)N(C)C)=C(C)Nc3nc4ccccc4n32)c1 (stereo unspecified),31%
CCCCn1c(Cl)nc2c1c(=O)n(C)c(=O)n2C,-5%
CCOc1ccc(C(=O)N2CCN(C(=O)c3ccco3)CC2)cc1OCC,19%
O=C1CCCc2c1[nH]c1ccc(Br)cc21,1%
Cc1cccc2c(=O)oc(-c3ccc4c(c3)C(=O)N(CC3CCCO3)C4=O)nc12 (stereo unspecified),8%
COCCOCC(O)CN1CCN(c2ccccc2)CC1 (stereo unspecified),-5%
O=C(Nc1ccc(N2CCOCC2)cc1)Nc1ccc2nc(-c3ccco3)c(-c3ccco3)nc2c1,59%
O=S(=O)(c1cccc2cccnc12)N1CCOCC1,-7%

# The list goes on, overlapping the part above by 6 compounds.
SMILES,AmpC nodet inh
CCOc1ccc(C(=O)N2CCN(C(=O)c3ccco3)CC2)cc1OCC,19%
O=C1CCCc2c1[nH]c1ccc(Br)cc21,1%
Cc1cccc2c(=O)oc(-c3ccc4c(c3)C(=O)N(CC3CCCO3)C4=O)nc12 (stereo unspecified),8%
COCCOCC(O)CN1CCN(c2ccccc2)CC1 (stereo unspecified),-5%
O=C(Nc1ccc(N2CCOCC2)cc1)Nc1ccc2nc(-c3ccco3)c(-c3ccco3)nc2c1,59%
O=S(=O)(c1cccc2cccnc12)N1CCOCC1,-7%
CCn1nccc1C(=O)NC1=C(C#N)CCC1,8%
COc1ccc(Br)cc1-c1nc(C)c(C(C)=O)n1O,-1%
Cc1c(CN(C)C(=O)CSc2nc(-c3ccco3)cc(C(F)(F)F)n2)cnn1C,70%
O=C1NCCN1C(=O)c1cccc(Cl)c1,-6%
Cn1c(SCC(=O)NC2CCCC2)nc2cccnc21,10%
Cc1ccc2[nH]c(=O)c(C(c3nnnn3CC3CCCO3)N3CCCc4ccccc43)cc2c1 (stereo unspecified),21%
CS(=O)(=O)N(CC(=O)NCc1ccccn1)c1ccc2c(c1)OCCO2,3%
O=C(Nc1ccccc1C(=O)OCn1nnc2ccccc2c1=O)c1ccco1,19%
CCOC(=O)N1CCN(C2=NC3(CCCCC3)C(C#N)C(=O)N2)CC1 (stereo unspecified),-4%
Cc1ccc(CNC(=O)COC(=O)c2c(C)noc2C)cc1,18%

SMILES,AmpC nodet inh
Cc1ccc(-n2nnnc2SCC(=O)NCCC2=CCCCC2)c(C)c1,9%
CS(=O)(=O)N1CCC2(CC1)CN(Cc1ccncc1)C2,84%
Clc1ccccc1OCCN1CCCCC1,1%
CCCSc1nnc(N2C(=O)CC(c3ccsc3)C3=C2CCCC3=O)s1 (stereo unspecified),64%
O=C(O)c1ccc(NCc2ccc3c(c2)OCO3)cc1,-2%
C=C(C)CCl,-18%
COc1ccc(OC)c(C2C(C#N)=C(N)Oc3c2c(C)nn3-c2ccc(C)cc2)c1 (stereo unspecified),18%
CCN(CC)CCNC(=O)c1cc(Br)c(N)cc1OC,4%[12.8 µM]
O=S(=O)(c1cccs1)N1CCN(c2ncccn2)CC1,-5%
Cc1ccc(-n2c(C)cc(C(=O)CSc3nnnn3C)c2C)cc1,38%

SMILES,AmpC nodet inh
O=c1c(-c2ccc3c(c2)OCCO3)coc2c(CN3CCOCC3)c(O)ccc12,4%
CCCCC(=O)c1c(O)c2ccccc2oc1=O,-1%
O=C(Nc1ccc(Br)cc1F)c1sccc1-n1cccc1,-4%
COC(=O)c1ccc(-n2nnnc2SCC(=O)Nc2cc(OC)ccc2OC)cc1,29%
CCCCNC(=O)c1c(C)cc(=O)oc1C,10%
O=C(Cc1cccs1)Nc1ccon1,-24%
O=S(=O)(c1ccc(S(=O)(=O)N2CCCN(Cc3ccccc3)C2)cc1)N1CCCCCC1,-13%
CCN1CCN(C(c2cc3cccc(C)c3[nH]c2=O)c2nnnn2Cc2ccccc2)CC1 (stereo unspecified),25%
COc1cccc(-c2nn(C)c3sc(C(=O)NCc4ccco4)cc23)c1,49%
O=C(NCCc1ccccc1)C1CCCN1C(=O)Nc1ccc(F)cc1 (stereo unspecified),4%

SMILES,AmpC nodet inh
O=C(CCCn1c(=S)[nH]c2ccsc2c1=O)NCc1ccco1,-11%
O=C(OCC(=O)N1CCN(C(=O)c2ccco2)CC1)c1ccccc1C(=O)c1ccccc1,74%
CC(C)CC(=O)Nc1ccc2oc(-c3ccncc3)nc2c1,6%
COC(=O)[C@@]1(Cc2ccc(F)cc2)[C@H]2c3cc(C(=O)N(C)C)n(Cc4ccccc4)c3C[C@H]2CN1C(=O)c1ccccc1,144%
OC1c2ccccc2-c2nc3ccccc3cc21 (stereo unspecified),-6%
COC(=O)c1cc2ccccc2c(=O)s1,2%
O=C(c1ccccc1C(=O)N1CCN(c2ccc(F)cc2)CC1)N1CCN(c2ccc(F)cc2)CC1,127%
Cc1csc(NC(=O)c2ccco2)n1,2%
CCCCCCCCC(=O)NCc1cc(OC)c(O)cc1I,16%
COc1ccc2cc(C(=O)NCc3ccco3)c(=O)oc2c1,7%

SMILES,AmpC nodet inh
COc1cccc(OCC(O)CN2CCC(Cc3ccccc3)CC2)c1 (stereo unspecified),12%
COc1ccc(-n2nc(C(=O)N3CCCCC3)c3ccccc3c2=O)cc1,12%
N#CCCn1cc(C(CC(=O)c2ccccc2)C(=O)O)c2ccccc21 (stereo unspecified),-3%
COc1ccc2c(c1)[n+]([O-])c(/C(C)=N/NC(N)=S)c(C)[n+]2[O-],2%[5.75 µM]
COc1cc(OC)c(Nc2cc(C)nc3nc(C)nn23)cc1Cl,27%
Cc1cccc(N2CCN(C(=O)CCn3c(=O)[nH]c4ccccc4c3=O)CC2)c1C,53%
CN(c1ccc(OCc2nnc(-c3ccccc3)o2)cc1)S(=O)(=O)c1ccccc1,20%
CCOc1cc(C2NC(=O)NC(O)(C(F)(F)F)C2C(=O)c2ccc(Cl)cc2)ccc1O (stereo unspecified),14%
O=C(CSC1CCCCC1)Nc1nccs1,-8%
Cc1ccc(CNC(=O)C2(CC(C)C)C=CCN2C(=O)c2ccccc2)o1 (stereo unspecified),86%

SMILES,AmpC nodet inh
COCCCNC(=O)c1ccc(N(C)S(C)(=O)=O)cc1,-7%
COC(=O)c1cc(-c2ccc(OC)c(OC)c2)n[nH]1,3%
CCOC(=O)C1CCN(S(=O)(=O)Cc2ccccc2)C1=O (stereo unspecified),4%
CC(=O)N(CC(O)CN(C(C)=O)c1c(I)c(C(=O)NC[C@@H](O)CO)c(I)c(C(=O)NC[C@@H](O)CO)c1I)c1c(I)c(C(=O)NC[C@@H](O)CO)c(I)c(C(=O)NC[C@@H](O)CO)c1I,-16%[12.8 µM]
CCn1c(SCC(=O)Nc2nc(-c3ccc(C)cc3)cs2)nnc1-c1ccccc1O,-23%
COC(=O)C(NC(=O)c1ccccc1)=C(C)C,-7%
CCn1c(CC(C)C)n[nH]c1=S,12%
COc1ccc(CN(C(=O)c2cccs2)c2nccs2)cc1OC,48%
CC(C)CC(=O)Nc1cccc(-c2nc3ccccc3o2)c1,27%
C[C@@H](CCC(=O)O)C(=O)O,10%[5.75 µM]

# Overlap with the part before: 2 compounds, then new ones.
SMILES,AmpC nodet inh
CC(C)CC(=O)Nc1cccc(-c2nc3ccccc3o2)c1,27%
C[C@@H](CCC(=O)O)C(=O)O,10%[5.75 µM]
CC1CC(N(C(=O)c2ccco2)c2ccccc2)c2ccccc2N1 (stereo unspecified),36%
COCC(C)n1c(COc2ccccc2F)nnc1SCc1c(C)noc1C (stereo unspecified),81%
COC(=O)c1c(-c2ccncc2)csc1NC(=O)c1ccoc1C,63%
C=CCn1c(COc2ccccc2)nnc1SCC(=O)Nc1ccc2c(c1)OCCO2,18%
CCC(=O)Nc1nc2ccccc2n1CCN(CC)CC,104%
Nc1[nH]c(=S)[nH]c(=O)c1N=Nc1c(Br)cc(S(N)(=O)=O)cc1Br,-5%[5.75 µM]
Oc1ccc(Cl)cc1-c1cc(-c2ccccc2)n[nH]1,4µM*[single pt active]
CCOC(=O)Nc1cc(C(=O)OCC)c(C)nc1C,1%
Cc1nc(N2CCOCC2)[nH]c(=O)c1CCC(C)C,2%
COC(=O)c1cn(CC(=O)NCc2ccco2)c2ccccc12,0%

SMILES,AmpC nodet inh
Cn1c(=O)c(C(=O)Nc2ncccc2O)c(O)c2ccccc21,-14%
Cc1cccn2c(=O)c3cc(C(=O)N4CCN(c5ccccc5)CC4)n(C)c3nc12,41%
CCn1c(CSc2nnc3ccccn23)nc2cc(C(=O)O)ccc21,1%
CCCC(=O)Cl,-5%
CC/C(=C\C(=O)c1ccncc1)Nc1ccc(O)cc1,-6%
c1ccc(C[n+]2cccc(-c3cc4ccccc4[nH]3)c2)cc1,-1%[5.75 µM]
O=C(NCCN1CCOCC1)c1ccc(Cl)c(S(=O)(=O)N2CCCCCC2)c1,88%
Cc1ccc(SCCNS(=O)(=O)c2ccc(F)cc2)cc1,-15%
CCCS(=O)(=O)n1nc(-c2ccc(Br)cc2)cc1N,-16%
Cc1ccc(C)c(Oc2nnnn2-c2ccccc2)c1,5%

Structure	AmpC nodet inh
CNc1ncnc2ccc(-c3ccccc3OC)cc12	13%
CN(C)c1nc(Oc2ccc(=O)n(-c3ccccc3)n2)nc(N2CCOCC2)n1	60%
COc1ccc(C)cc1NC(=O)c1cnc2sccn2c1=O	0%
NS(=O)(=O)c1ccc(NCc2nc3ccccc3[nH]2)cc1	-6%[5.75 µM]
Cc1cc(C(=O)CSCc2nnc3n(CCC(C)C)c(=O)c4ccccc4n23)c(C)n1C	47%
Cc1nc2n(n1)C(c1ccccc1)C1=C(CC(c3ccco3)CC1=O)N2 (stereo unspecified)	-6%
O=C(Nc1ccc(S(=O)(=O)NCCc2ccccc2)cc1)c1ccco1	-21%
Cc1ccc(S(=O)(=O)N2CCCCC2C(=O)N2CCN(Cc3ccccc3)CC2)cc1 (stereo unspecified)	113%
O=C(CN(c1ccc(Cl)c(C(F)(F)F)c1)S(=O)(=O)c1ccccc1)N1CCOCC1	104%
COc1cccc(-n2nnc3c(=O)n(CC(=O)N4CCC(C)CC4)cnc32)c1	26%
Cn1nc(-c2ccc(Cl)cc2)c2cc(C(=O)N3CCOCC3)sc21	149%
CCCCN(C)CCn1c(=S)[nH]c2ccc(N3CCOCC3)cc2c1=O	4%

# Part of the list above, as labelled records:
> O=C(NC(Cc1ccccc1)C(=O)NCc1ccccn1)c1ccco1 (stereo unspecified)
  AmpC nodet inh: 20%
> Cc1c(CN(C)C(=O)CSc2nc(-c3ccco3)cc(C(F)(F)F)n2)cnn1C
  AmpC nodet inh: 70%

# Following part:
Structure	AmpC nodet inh
O=C1CSC(=S)N1CC1CCCO1 (stereo unspecified)	0%
CCn1c(CNc2ccc(F)cc2)nnc1SCC(=O)N1CCCc2ccccc21	47%
Cc1cc(C)cc(-n2nnc(C(=O)NCc3ccccc3)c2N)c1	-13%
CCc1nnc(NC(=O)CSc2nnc(-c3cccnc3)n2CCc2ccccc2)s1	42%
Cn1c(=O)[nH]c(=O)c2c1nc(NC1CCCCC1)n2Cc1ccccc1	-3%
CCCC(C(=O)c1ccccc1)n1cncn1 (stereo unspecified)	-6%
CCS(=O)(=O)N1CCN(C(=O)c2cccnc2)CC1	-2%
Cn1c(SCc2ccc(C#N)cc2Cl)nc2ccccc21	3%
CCn1c(=NC(=O)CSCC(=O)Nc2nccs2)sc2ccccc21	-18%
COc1ccc(-n2nnnc2SCC#CCO)cc1	10%
Cc1ccccc1-n1c(=O)cc(N2CCN(Cc3ccccc3)CC2)[nH]c1=O	-8%
COc1nc(Oc2ccc(=O)[nH]n2)nc(N2CCOCC2)n1	4%

Structure	AmpC nodet inh
Cc1ccc(S(=O)(=O)c2c(C)nn(C(C)(C)C)c2OC(=O)C2CCCC2)cc1	36%
CCOC(=O)C1CCCN(c2c(NCC3CCCO3)c(=O)c2=O)C1 (stereo unspecified)	3.2µM*[single pt active]
COc1ccc(CNc2ncnc3ccc(-c4ccoc4)cc23)c(OC)c1	32%
O=c1c2ccccc2c(/C=N/n2cnnc2)c(O)n1-c1ccccc1F	2%
Cc1ccc(C(=O)N2CCCCCC2)cc1Br	17%
CCOC(=O)c1c(C)c(C(=O)NCCOC)c(C)n1CC	-6%
CCOCC(=O)N1CCCC(C(=O)OCC)C1 (stereo unspecified)	0%
Cc1ccc(OCC(=O)Nc2ccc(-c3nc4ncccc4o3)cc2)c(C)c1	51%
COC(=O)c1cc(COc2cc(C)cc3oc(=O)c4c(c23)CCC4)c(C)o1	34%
Cc1ccc2cc(-c3noc(C(C)(C)C)n3)c(=O)[nH]c2c1	16%
CCOc1cc(C#N)c(NC(=O)Cn2nnc3ccccc32)cc1OCC	15%
CCOC(=O)N1CCN(C(=O)CSc2nnc(-c3cccc(OC)c3)o2)CC1	57%

Structure	AmpC nodet inh
Cc1csc(SCc2nnc(-c3ccccc3Br)o2)n1	6%
O=C(CN1CCNCC1)Nc1ccccc1Cl	-16%
COc1ccc(-c2ccc(C(=S)N3CCN(C(C)=O)CC3)o2)cc1	116%
COc1ccccc1NC(=O)CSc1nnc(-c2ccoc2C)n1CCc1ccccc1	76%
O=C(CSc1nc(-c2ccccc2)cc(C(F)(F)F)n1)NCCN1CCOCC1	58%
CC(C)c1cccc2cc3c(nc12)-c1cccc(=O)n1C3	62%
Cc1ccccc1Nc1nc(N)nc(CN(C)c2ccccc2)n1	8%
COc1ccccc1-c1nnc2sc(-c3cc4ccccc4o3)nn12	115%
Cc1ccc(C(=O)N2CCN(c3ccccc3)CC2)cc1S(=O)(=O)N1CCCC1	68%
CC(C)C(=O)Nc1ccc(NC(=O)c2ccco2)cn1	-3%
N#Cc1cc2c(nc1SCc1ccncc1)CCC2	8%
COc1cc(C2C3C(=O)N(Cc4ccccc4)C(=O)C3ON2c2ccccc2)cc(OC)c1O (stereo unspecified)	68%
Nc1ccc(S(=O)(=O)O)cc1	-1%

# This is a subset. The share of hits here may be higher or lower than overall.
